Compound activity: PubChem BioAssay, National Center for Advancing Translational Sciences (NCATS)
TRPV1 PAM: human TRPV1 potentiation. Q8NER1. TRPV1-expressing cells, Fluo-8 calcium influx, capsaicin EC20 potentiation; host cell line not named in the record; control for the full effect not named in the record. potentiation, % at 8.33 µM. hit rate 0.02% among 320,000; active means potentiation above 80%; inconclusive means 30% to 80%; inactive means below 30%; also: 0% is about no effect
Target sequence (Q8NER1 whole entry, looked up): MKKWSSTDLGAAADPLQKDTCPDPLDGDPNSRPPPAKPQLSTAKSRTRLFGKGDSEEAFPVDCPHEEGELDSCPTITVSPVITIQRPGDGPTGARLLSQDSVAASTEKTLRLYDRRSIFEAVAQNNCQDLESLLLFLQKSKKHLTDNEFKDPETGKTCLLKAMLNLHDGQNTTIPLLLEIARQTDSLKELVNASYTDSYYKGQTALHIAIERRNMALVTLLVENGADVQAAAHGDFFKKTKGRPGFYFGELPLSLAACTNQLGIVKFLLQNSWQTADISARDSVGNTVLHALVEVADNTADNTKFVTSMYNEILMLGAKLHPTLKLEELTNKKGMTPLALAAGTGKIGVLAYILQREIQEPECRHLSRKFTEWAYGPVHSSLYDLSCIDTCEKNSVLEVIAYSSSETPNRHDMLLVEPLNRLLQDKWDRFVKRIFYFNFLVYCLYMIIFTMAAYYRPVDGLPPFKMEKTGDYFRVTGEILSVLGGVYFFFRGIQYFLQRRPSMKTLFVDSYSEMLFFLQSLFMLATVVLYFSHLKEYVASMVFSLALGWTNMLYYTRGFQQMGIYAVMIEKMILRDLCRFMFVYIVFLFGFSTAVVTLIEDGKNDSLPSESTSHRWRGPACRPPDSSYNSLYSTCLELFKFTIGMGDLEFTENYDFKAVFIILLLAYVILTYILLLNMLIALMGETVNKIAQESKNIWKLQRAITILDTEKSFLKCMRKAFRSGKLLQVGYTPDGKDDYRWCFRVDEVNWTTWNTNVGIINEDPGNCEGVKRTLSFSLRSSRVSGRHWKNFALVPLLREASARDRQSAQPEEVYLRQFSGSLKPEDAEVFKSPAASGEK
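Cells expressing TRPV1 were dye-loaded with Fluo-8 and read kinetically: 10 s baseline, 3 min after compound (agonist portion), then 2 min after EC20 capsaicin (allosteric enhancer portion). Calcium-bound dye fluorescence at 480/520 nm.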
Sfp PPTase inh: inhibitors of Bacillus subtilis Sfp phosphopantetheinyl transferase; Q9F4F7; Biochemical Sfp PPTase activity, qHTS; Potency, µM, for the others: max response, negative = inhibition, usual class: inhibitors; hit rate 3.5% among 310,000; active = well fitted inhibition curve with a large enough effect; inconclusive = small, poorly fitted or top-dose-only effect, or another doubt; inactive = no such curve, though single readings can be large or run the other way;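 also: the enzyme is Sfp with the accession as filed and its product quenches rhodamine fluorescence; potency is read from the fitted curve at half-maximal effect; 0% = enzyme reaction without inhibitor and -100% = no enzyme wells; top concentration of the series not given in the record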
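With Hepes-Na pH 7.6 buffer containing 10 mM MgCl2, Sfp (15 nM) modified BHQ-2-YbbR (12.5 uM) using rhodamine-CoA (5 uM). Two reads 30 minutes apart at 525/598 nm yielded each well's rate.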
CtBP-E1A blk: blocks the CtBP interaction with E1A; AlphaScreen GST-E1A/His-CtBP binding, 1536-well; stronger effect = lower value; control for the full effect not named in the record; activity change, % (test concentration not listed); hit rate 0.49% among 340,000; AID 651724; in the data active means activity change below about -65%; inconclusive means about -30% to -65%; inactive means above about -30%; also: % is scaled to controls: 0 for no effect and ±100 for the full control effect; compound concentration not given in the record
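Homogeneous bead-based format: GST-tagged E1A captured on glutathione donor beads, His-tagged CtBP on nickel acceptor beads; compounds precede bead addition by 2 h at 37 °C.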
Menin-MLL FL inh: inhibitors of human menin-MLL interaction, wild-type MLL peptide | FP activity change, % at 61.4 µM | 290,000 tested, under 10 active | AID 1766 | Fluorescence polarization, fluorescein-MLL peptide displacement from menin; inconclusive = falling polarisation curve, or a change in total fluorescence; inactive = total fluorescence flat and polarisation flat or rising; no compound was filed as active; the % refers to the polarisation; negative = inhibition;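 also: % of control where 0% means no effect; inhibitors lower the polarisation; unlabelled MLL peptide was the positive control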
gsp ag: gsp mutant agonism. hit rate 0.13% among 340,000. Potency, µM (top dose mostly 76.9 µM), inactives show top-dose activation (cAMP increase), usual class: activators. gsp mutant cells, cAMP HTRF, 30 min; control for the full effect not named in the record; active = well fitted activation curve with a large enough effect; inconclusive = small, poorly fitted or top-dose-only effect, or another doubt; inactive = no such curve, though single readings can be large or run the other way; cell line not stated here;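 also: phosphodiesterase inhibitor Ro 20-1724 added with compounds to block cAMP breakdown; potency is read from the fitted curve at half-maximal effect; nearly all actives have a fitted effect of over 60% in size; about a fifth of the inactives were tested at one dose only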
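Cells stably selected in G418 were plated at 2000/well, grown 16-24 hr, then given compounds in DMSO with the PDE inhibitor […] (300 uM solution added) for 30 min at 37C; cAMP was read by HTRF.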
ClpP mod: qHTS Assay for Activators of ClpP; ATP-dependent Clp protease proteolytic subunit (Bacillus subtilis (strain 168)), P80244; purified B. subtilis ClpP, FRET peptide cleavage, 20 min; Potency, µM (top dose mostly 57.5 µM), for the others: at the top dose activity change, negative = active; hit rate 1.9% among 340,000; active = well fitted falling curve with a large enough effect; inconclusive = small, poorly fitted or top-dose-only effect; inactive = no such curve, though single readings can be large or run the other way; also: potency is read from the fitted curve at half-maximal effect; the source files actives as falling curves though it sought activators and does not explain the sign; nearly all actives have a fitted effect of over 65% in size; many hits overshoot -100%
Target sequence (P80244 whole entry, looked up): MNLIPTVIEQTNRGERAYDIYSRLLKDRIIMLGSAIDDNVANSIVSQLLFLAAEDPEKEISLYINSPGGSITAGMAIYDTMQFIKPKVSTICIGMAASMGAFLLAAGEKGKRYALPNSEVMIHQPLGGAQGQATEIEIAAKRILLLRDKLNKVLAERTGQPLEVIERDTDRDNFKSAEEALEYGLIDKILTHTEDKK
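Purified B. subtilis ClpP, 10 microg/mL final in Tris/HCl pH8 with KCl, BSA, glycerol and Tween-20, cleaved an Abz/nitrotyrosine-quenched decapeptide. Fluorescence (ex 320, em 430) was read at 0 and 20 min at room temperature. Delta was normalized to 5.8 microM ADEP and DMSO/no-enzyme controls.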
gsp antag: gsp mutant antagonism | gsp-mutant cells, cAMP HTRF, 30 min; control for the full effect not named in the record | Potency, µM (series often up to 76.9 µM), inactives show top-dose activity change, negative = inhibition, hits mostly inhibitors | hit rate 0.4% among 340,000; active = falling curve of any shape with a large fitted effect; inconclusive = falling curve, mostly with a smaller effect; inactive = flat or rising curve; cell line not stated here;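 also: intracellular cAMP measured with PDE inhibitor Ro 20-1724 present during compound exposure; potency is read from the fitted curve at half-maximal effect; % is scaled to controls: 0 for no effect and ±100 for the full control effect; nearly all actives have a fitted effect of over 65% in size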
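Cells in G418 medium, seeded 16-24 h, 37C; buffer exchange to DPBS + 1 mM CaCl2, 0.5 mM MgCl2, 0.05% BSA; cpds in DMSO + […] (300 uM stock), 30 min 37C; HTRF cAMP detection.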
* = called active by the depositor; ? = inconclusive; nt = not tested or not shown; & = joins results of further samples; [ ] = another dose, or the depositor's remark.

SMILES	TRPV1 PAM	Sfp PPTase inh	CtBP-E1A blk	Menin-MLL FL inh	gsp ag	ClpP mod	gsp antag
CC1=Nc2ccccc2N=C(NC(=O)CSC(=S)N2CCCCC2)C1c1ccccc1 (stereo not given)	-4	20%	-28	1.5	-17%	nt	-17%
O=C1c2ccccc2N[C@@H]2C=CC[C@@H]2N1O	nt	nt	-5	nt	nt	1.3%	10%
CC(=O)c1c(C)nc2ccc([N+](=O)[O-])cc2c1-c1ccccc1	-33	1%	0	2.8	-5%[15.4 µM]	1.3%	-30%
O=C(NCC1OCCCN1S(=O)(=O)c1ccc(F)cc1)C(=O)NC1CCCC1 (stereo not given)	0	13%	-8	nt	3%[15.4 µM]	-2.8%	9%
COc1ccccc1CNC(=O)c1n[nH]c2ccccc12	30	9%	9	-0.6	3%[15.4 µM]	nt	-4%
O=C(COC(=O)[C@@H]1CC(O)CN1S(=O)(=O)c1ccccc1[N+](=O)[O-])Nc1ccc2ccccc2c1 (stereo not given in full)	-11	15%	-4	11	-2%	-1.4%	-14%
Cc1cc(C(=O)NCCc2ccc(S(N)(=O)=O)cc2)c(C)o1	3	13%	-1	2.1	2%[15.4 µM]	nt	13%
COc1cc2c(cc1OC)CN(c1ncccc1[N+](=O)[O-])CC2	-7	?	-22	2.1	5%	nt	6%
O=[N+]([O-])c1ccc(CN2CC(N3CCC(Cc4ccccc4)CC3)CS2(=O)=O)cc1 (stereo not given)	nt	nt	-8	nt	22%	-0.6%	nt
NC(=Nc1ccc(Cl)cc1)c1ccccc1	-3	21%	-12	-1.0	11%	nt	7%
N#Cc1cc(C(=O)Cc2ccccc2)c[nH]1	-10	15%	-1	2.8	6%	nt	2%
C=CCNC(=O)c1ccc2nc(-c3ccccc3)c(-c3ccccc3)nc2c1	-19	2%	0	0.0	-2%	20µM*	-19%
CC(C)n1nc(C(=O)NCCc2ccc(S(N)(=O)=O)cc2)c2ccccc2c1=O	5	6%	0	1.1	14%	1.8%	0%
O=c1cc(-c2ccco2)oc2ccc(Cl)cc12	18	20%	-3	4.1	1%	2.8µM*	0%
COC(=O)CN(c1ccccc1C)S(C)(=O)=O	5	6%	-3	-2.1	-26%	-2.4%	8%
CC(C)NC(=S)Nc1ccc2[nH]c(=O)[nH]c2c1	-7	-16%	nt	-5.9	21%	-3.9%	2%
CC(C)(C)c1ccc(/C=N/n2cnnc2)cc1	-19	17%	0	0.8	2%[15.4 µM]	nt	3%
O=C(Cc1c(C(=O)O)[nH]c2ccccc12)NC1CCCC1	22	19%	-24	-1.0	2%	nt	10%
COc1cccc(NC(=O)NCc2c(-c3ccccc3)noc2C)c1	-6	9%	10	0.2	4%[15.4 µM]	1.1%	-2%
O=C(CCc1nc2ccccc2c(=O)[nH]1)OCc1ccccc1F	-6	2%	8	-0.7	16%	-5.5%	4%
NS(=O)(=O)c1ccc(NC(=O)C2COc3ccccc3O2)cc1 (stereo not given)	-15	6%	3	2.6	0%	-0.8%	9%
COc1cccc(C2NC(=O)NC(O)(C(F)(F)F)C2C(=O)c2cccnc2)c1OC (stereo not given)	-1	8%	3	2.0	16%	1.0%	6%
CCc1nnc(NC(=O)C2Cc3ccccc3CN2S(=O)(=O)c2cccs2)s1 (stereo not given)	0	-19%	-27	7.4	10%	-1.0%	-6%
O=c1ccn(CCCBr)c(=O)[nH]1	-3	20%	3	-0.9	-1%[15.4 µM]	nt	10%
NC(=O)c1nn(CC(=O)Nc2ccc3c(c2)OCO3)cc1[N+](=O)[O-]	-2	11%	-2	-7.7	19%[15.4 µM]	-0.3%	-22%

New compounds follow
SMILES	TRPV1 PAM	Sfp PPTase inh	CtBP-E1A blk	Menin-MLL FL inh	gsp ag	ClpP mod	gsp antag
O=C(N/N=C/c1ccc([N+](=O)[O-])o1)c1ccc2c(c1)OCO2	-15	14%	-15	0.3	?	0.3%	-8%
Cc1ccc(-c2ccc(NC(=O)C3C4C=CC(C4)C3C(=O)O)cc2)o1 (stereo not given)	12	2.2µM*	-14	8.4	0%	?	-6%
C=CCOC(=O)CN1C(=O)c2ccccc2C1=O	-8	-14%	-1	1.2	-40%[inhibitor]	0.2%	-12%
O=C(NC1CCS(=O)(=O)C1)c1c(NC(=O)C2COc3ccccc3O2)sc2c1CCCC2 (stereo not given)	11	-27%	0	4.4	-22%	-5.5%	-24%
O=C(Cn1c(NCCO)nc2ccccc21)c1ccc(Cl)cc1Cl	10	-1%	0	-1.1	1%[15.4 µM]	0.6%	-8%
N#CC1=C(SCC(=O)c2cc3ccccc3oc2=O)NC(=O)C(C#N)C12CCCC2 (stereo not given)	6	-18%	-2	?	21%	46%	-16%
CCC1CCCCN1CC(=O)c1c(C)[nH]c2cc(C)ccc12 (stereo not given)	9	-14%	3	9.8	5%	nt	6%
Cc1nnc(SCC(=O)c2cc(C)n(-c3c(C)n(C)n(-c4ccccc4)c3=O)c2C)s1	1	-1%	6	1.8	-8%	-0.5%	-2%
COc1ccc(OC(C)c2nnc(N)s2)cc1 (stereo not given)	4	?	nt	0.1	-40%[inhibitor]	0.1%	8%
Cc1ccccc1OCc1n[nH]c(=S)n1-c1ccccc1	3	6%	-6	-2.0	-23%	-0.1%	-9%
COc1ccc(C2=C(C)CC(C)(C)NC2=O)cc1OC	-4	7%	7	3.9	9%	-0.8%	6%
O=C(Nc1ccccc1)N1CCc2ccccc21	-19	7%	-2	1.0	3%	0.6%	-15%
Cc1ccccc1N(CC(=O)NCCSC1CCCCC1)S(=O)(=O)c1ccccc1	-9	5%	2	0.4	18%	1.8%	-9%
CSCCC1NC(=O)N(CC(=O)Nc2c(Cl)cc(Cl)cc2Cl)C1=O (stereo not given)	3	17%	-2	-0.9	2%	-2.3%	11%
COc1ccc(NC(=O)COC(=O)CCCc2c[nH]c3ccccc23)cc1	-25	0%	-4	2.0	-45%[inhibitor]	-1.0%	-5%
CCC(C)N1C(=O)CCC1C(=O)NCCc1ccc(Cl)cc1 (stereo not given)	1	0%	6	-6.4	13%	nt	11%
COc1ccccc1N1CCN(CC(C)N(C(=O)C2CCCCC2)c2ccccn2)CC1 (stereo not given)	-6	1%	-2	-1.8	-6%[15.4 µM]	-12%	4%
CCS(=O)(=O)c1ccc2oc(SCC(=O)NCCc3ccc(F)cc3)nc2c1	0	9%	6	-0.6	-3%[15.4 µM]	0.5%	9%
CCOC(=O)CCCCCC(=O)Nc1ccc2c(c1)C(=O)N([C@H](C)CO)C[C@H](C)[C@@H](CN(C)S(C)(=O)=O)OCCCC[C@@H](C)O2	nt	nt	1	nt	-47%[inhibitor]	1.9%	nt
Cc1ccc(N2CC(C(=O)N3CCC(C(=O)Nc4ccc(Br)cc4)CC3)CC2=O)cc1 (stereo not given)	-6	13%	0	-0.6	11%	nt	0%
COc1cccc(NC(=O)CCS(=O)(=O)c2cccs2)c1	-5	-1%	3	1.3	4%	-0.6%	6%
CCC(NC(=O)/C(=C\c1ccc2c(c1)OCO2)NC(C)=O)C(=O)O (stereo not given)	-1	11%	17	2.9	-5%[15.4 µM]	-3.9%	11%
Cc1ccc(C)c(S(=O)(=O)Nc2ccccc2C(=O)Nc2ccc(S(=O)(=O)Nc3ncccn3)cc2)c1	17	-12%	-26	6.8	5%	25µM*	?
Cc1cccc(C(=O)N2CCN(CCNC(=O)C(=O)Nc3ccc(F)cc3)CC2)c1	2	19%	4	-7.5	0%[15.4 µM]	nt	-1%
COc1cc(C)ccc1S(=O)(=O)N1CCN(C23CC4CC(CC(C4)C2)C3)CC1	-2	11%	2	1.7	-29%	?	-3%

Sfp PPTase inh: what is marked active above
SMILES	Sfp PPTase inh	CtBP-E1A blk	Menin-MLL FL inh	gsp ag
Cc1ccc(-c2ccc(NC(=O)C3C4C=CC(C4)C3C(=O)O)cc2)o1 (stereo not given)	2.2µM*	-14	8.4	0%

(listing goes on)
SMILES	TRPV1 PAM	Sfp PPTase inh	CtBP-E1A blk	Menin-MLL FL inh	gsp ag	ClpP mod	gsp antag
CCN(CC)C(=O)CC(c1ccc(N(C)C)cc1)c1c(O)cc(OC)cc1OC (stereo not given)	?	-8%&11%	-19	1.9&5.2	nt	-0.3%	3%
COc1ccc(Cc2nn3c(Cn4nnc5ccccc54)nnc3s2)cc1	2	16µM*	-3	3.6	?	-0.6%	23%
Cn1c(N)nc2nc[nH]c2c1=S	nt	nt	0	nt	10%	3.5%	10%
COCCn1c(C)cc(C(=O)COC(=O)c2ccc(NC(=O)CC#N)cc2)c1C	1	-2%	5	?	6%	-2.4%	-1%
Cc1cc(NC(=O)OC(C)C)ccc1-c1ccc(NC(=O)OC(C)C)cc1C	24	9%	nt	-1.5	44%	-7.2%	7%
Cc1cccc2cc(CN(Cc3ccc(F)cc3)C(=O)C(F)(F)F)c3nnnn3c12	1	0%	-12	-2.3	-19%	-2.1%	-4%
Fc1ccc(C(c2nnnn2C2CCCC2)N(Cc2ccco2)CC2CCCO2)cc1 (stereo not given)	-21	-3%	-4	-2.1	-3%	-1.7%	-17%
COc1cccc(CN(C(=O)c2cc3ccccc3oc2=O)C2CC2)c1	7	14%	-6	1.3	-7%	-3.3%	?
CCCN(CCC)C(=O)Cn1c(=O)n(CCCCC(=O)NC2CCCC2)c(=O)c2ccccc21	-3	3%	4	2.1	-11%	2.5%	5%
COc1ccc(CNCc2c(C(=O)N(C)C)nc3ccc(Cl)cn23)c(OC)c1	0	-3%	nt	0.2	?	-2.0%	2%
CCOc1ccc(Nc2ncnc(N)n2)cc1	4	-4%	0	8.0	-38%[inhibitor]	-0.4%	-2%
CC(C)C(=O)Nc1nnc(CCc2nnc(NC(=O)C(C)C)s2)s1	13	14%	-1	1.1	-2%	-0.9%	16%
O=Cc1cn(CCOc2ccccc2)c2ccccc12	3	-7%	nt	-1.1	-10%	-0.2%	8%
O=P(CCNCc1ccco1)(c1ccccc1)c1ccccc1	7	11%	-1	-4.5	-7%	4µM*	-10%
COc1ccc(N2CCN(C(=O)c3cccc(NC(=O)c4ccco4)c3)CC2)cc1	10	19%	-2	nt	-4%[15.4 µM]	-1.0%	-3%
Cc1ccc(-c2n[nH]c(=S)n2/N=C/c2c(C)[nH]n(-c3ccccc3)c2=O)cc1	6	50µM*	-5	0.8	?	nt	3%

Outcome played no part in choosing rows; overall some 5.3% were active at least once.
